# Source: PubChem (several laboratories)
# PABP polyA inh = PABP-poly(A) binding inhibition. 1% of 290,000 active. PABP-poly(A) RNA binding, fluorescence polarization. inhibition, % at 35 µM;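 active = 50% or more with normal probe brightness, or confirmed in later tests; inconclusive = above 50% with abnormal brightness, or retests that disagree; inactive = below 50% or failed in later tests; about a fifth of its hits are not listed in these tables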;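 note: calls also rest on retests at 20 µM and on dose response follow-up; controls were probe without protein and protein plus probe with vehicle; some compounds called inactive have numbers as strong as hits; many hits fall short of the cut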
# Target sequence (P11940 whole entry, looked up): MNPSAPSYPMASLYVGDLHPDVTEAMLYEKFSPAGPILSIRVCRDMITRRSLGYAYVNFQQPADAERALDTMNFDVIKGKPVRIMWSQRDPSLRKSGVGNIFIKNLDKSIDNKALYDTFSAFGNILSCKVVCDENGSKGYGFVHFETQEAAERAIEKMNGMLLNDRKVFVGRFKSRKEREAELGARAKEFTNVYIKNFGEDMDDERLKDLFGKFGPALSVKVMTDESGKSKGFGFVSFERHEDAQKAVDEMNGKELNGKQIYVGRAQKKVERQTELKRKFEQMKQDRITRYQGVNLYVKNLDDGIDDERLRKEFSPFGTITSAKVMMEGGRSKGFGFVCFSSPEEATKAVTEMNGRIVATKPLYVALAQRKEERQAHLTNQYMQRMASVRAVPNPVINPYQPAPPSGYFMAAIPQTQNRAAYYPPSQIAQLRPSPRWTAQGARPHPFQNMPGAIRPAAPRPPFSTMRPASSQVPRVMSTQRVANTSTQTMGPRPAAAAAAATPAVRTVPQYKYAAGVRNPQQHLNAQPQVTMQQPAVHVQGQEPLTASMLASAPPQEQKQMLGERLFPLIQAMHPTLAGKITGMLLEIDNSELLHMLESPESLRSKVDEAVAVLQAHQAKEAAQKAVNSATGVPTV
# MT1-MMP act inh = inhibitors of human MT1-MMP activation. P50281. HT1080 RFP-PRO-GFP cells, GFP/RFP ratio fluorescence, overnight; percent of plate control window, DMSO zero. GFP/RFP ratio change, % at 20 µM. 0.061% of 360,000 active. AID 651647;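 active = GFP/RFP ratio change of at least 30% with cell ATP level not reduced by more than half and red fluorescence within 50% of control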; note: strong numbers were not always called active
#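 Compound: 20 µM single dose, 1% DMSO / System: HT1080 RFP-PRO-GFP cells / Controls: DMSO and RFP-L50D-GFP cell wells / Read-out basis: GFP/RFP fluorescence ratio / Schedule: overnight compound exposure at 37 °C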
# Env fusion inh = blocks HIV Env-driven cell-cell fusion | HeLa-JRFL Env/CEM21 cell fusion, luciferase | inhibition, % at 12.3 µM | 1.1% of 360,000 active | AID 651610;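 active = mean replicate inhibition score of at least 50 and every replicate individually at or above 50; inconclusive = only one of the two criteria met; inactive = mean below 50 and not all replicates reaching 50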;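 note: 0% = plate neutral controls and 100% = maraviroc near 300 nM; one replicate is shown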
# Yeast UUG start = modulators of start codon recognition fidelity in yeast; S. cerevisiae UUG-firefly luciferase reporter, luminescence/redox ratio; activity score, % at 18.7 µM; 0.13% of 350,000 active; AID 602363;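 active = replicate mean at a twofold rise or more, about +100% in these data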;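 note: firefly luciferase made from a UUG start codon reports start codon fidelity; reporter light over untreated wells divided by growth signal over untreated wells; some hits fall short of that in this replicate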
# Rce1 inhib = yeast Ras-converting enzyme inhibition; 0.27% of 290,000 active; yeast membranes, quenched prenylated peptide cleavage fluorescence; Q03530; AID 2563; calls only;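 active = fall in fluorescence gain of 50% or more versus controls, with final raw signal at or below 3038400; inconclusive = same 50% fall but final raw signal above 3038400; inactive = fall in fluorescence gain under 50%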;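 note: plate controls were neutral control wells for no effect and wells lacking membranes for full effect; tested at 10 µM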
# eIF4H FP inh = inhibitors of RNA binding by human eIF4H; AID 2012; Q15056; inhibition, % at 35 µM; 0.94% of 290,000 active; eIF4H fluorescence polarization binding assay;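 active = 50% or more with normal probe brightness, or confirmed in later tests; inconclusive = above 50% with abnormal brightness, or retests that disagree; inactive = below 50% or failed in later tests; about a fifth of its hits are not listed in these tables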;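 note: calls also rest on retests at 20 µM and on dose response follow-up; 0% = protein and probe with vehicle and 100% = probe without protein; strong numbers were not always called active; many hits fall short of the cut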
# CSC inhib = cancer stem cell inhibition; cancer stem cell-like cells viability, luminescence; inhibition, % at 7.5 µM; 1.1% of 300,000 active;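 active = mean at 75% or more and at least half the replicates too; inconclusive = mean and replicates disagree; tested in HMLE shEcad cells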;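 note: 0% = median of negative and 100% = median of positive control wells; the first replicate is given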
# MT1-MMP act inh RFP = further read-out of MT1-MMP act inh, marked with its call; RFP signal change, %; measured here: RFP expression control read;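 0 = vehicle wells; hits needed this value within 50% of zero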
# Numbers without * were called inactive; i = inactive; ? = inconclusive; . = no result given; & = joins results of further samples. A portion of the library. The share of hits here may be higher or lower than overall.
# Below each SMILES – PABP polyA inh	MT1-MMP act inh	MT1-MMP act inh RFP	Env fusion inh	Yeast UUG start	Rce1 inhib	eIF4H FP inh	CSC inhib
> Cc1ccc(C2(C)NC(=O)N(CC(=O)N3CC(=O)Nc4ccccc43)C2=O)cc1 (centres undefined)
    .	3	5	6	-12	.	.	-12
> O=C(O)c1ccccc1/C=N/N1CCN(C2c3ccccc3-c3ccccc32)CC1
    -13	-2	2	7	-9	i	4	-1
> O=C(CCCOc1ccc(Cl)cc1)N1CCCCC1
    -4	2	0	.	-20	i	8	10
> CC1(C)Cc2nc(N)c(=O)sc2C1
    1	1	-3	.	-14	i	-7	-19
> COC(=O)CCN(C(=O)c1cc([N+](=O)[O-])cc([N+](=O)[O-])c1)c1ccccn1
    -5	1	-1	-3	12	i	-5	-13
> C/C(CC(=O)N(C(C)C)C(C)C)=N\NC(=O)COc1ccc(Br)cc1Br
    -2	2	8	11	.	i	-5	-8
> Cc1cc(-c2ccc(C)c(S(=O)(=O)Nc3cc(C)on3)c2)on1
    8	-4	-1	-4	-19	i	-4	-5
> O=C(c1ccc(Cn2cc([N+](=O)[O-])cn2)o1)N1N=C(C(F)F)CC1(O)C(F)F (centres undefined)
    6	1	4	.	-8	i	-7	.
> CCNc1nc(NCC)n2c(SCC(=O)Nc3ccc(C(F)(F)F)cc3[N+](=O)[O-])nnc2n1
    -13	0	-1	-43	-5	i	8	9
> O=C(c1ccccc1)c1cnc[nH]1
    0	-1	8	7	-20	i	-8	-3
> CCc1cccc2sc(NC(=O)C3CC3)nc12
    2	3	-8	-35	8	i	-9	2
> O=C(c1ccc(Br)s1)N1CCN(C/C=C/c2ccccc2)CC1
    -6	19	1	-12	.	i	-7	-5
> Cc1ccc(NC(=O)c2cccc(Oc3ccc([N+](=O)[O-])cc3)c2)c(C(=O)O)c1
    4	2	1	13	-3	i	4	40
> O=[N+]([O-])c1ccc(Oc2cc(NC3CCCCCCC3)c([N+](=O)[O-])cc2[N+](=O)[O-])cc1
    6	-6	-1	23	0	i	4	-12
> COc1ccc(N(Cc2cc3cccc(C)c3[nH]c2=O)S(=O)(=O)c2ccc(Cl)cc2)cc1
    -1	-5	-2	21	-11	i	-8	5
> O=C(Cc1cccs1)Nc1ccccc1C(=O)O
    3	-1	7	.	-9	i	5	0
> O=S1(=O)CCOC[C@H](Cc2ccccc2)N1Cc1ccc(Cl)cc1
    .	-6	-4	27	20	i	.	-2
> O=C(c1cnn2c(C(F)(F)F)cc(-c3cccs3)nc12)N1CCOCC1
    13	4	6	5	6	i	7	-12
> CCOC(=O)c1c(C)[nH]c(C)c1S(=O)(=O)NCc1cc(C)ccc1C
    -4	-2	-2	4	.	i	-4	-8
> C[n+]1cccc(O)c1SCc1ccccc1
    .	1	1	11	-24	i	.	-27
> C=CCn1c(SCc2c(C)noc2C)nc2cc(C(=O)O)ccc2c1=O
    .	7	-7	-62	-6	i	.	51
> COc1ccc(NC(=S)NN2CCN(C)CC2)cc1
    7	-2	-3	.	-20	i	7	2
> O=C(CN1C(=O)C2C3C=CC(C3)C2C1=O)OCC(=O)c1ccc(Br)cc1 (centres undefined)
    10	1	3	0	0	i	-4	1
> CN(CC(=O)Nc1ccc(Cl)c(C(F)(F)F)c1)C(=O)c1cccc2cccnc12
    .	-1	-9	9	-8	.	.	.
> Cc1cc(C)n(-c2ccc(NC(=O)C3CCCCN3C(=O)c3ccoc3)cc2)n1 (centres undefined)
    3	-3	1	1	-7	i	-7	-10
> Cc1[nH]c2ccc(C(=O)OC(C)C(=O)N(C)c3ccccc3)cc2c1C (centres undefined)
    .	-3	-8	.	1	i	.	-5
> CN(C)CCOC(=O)CCCCCCCCC(=O)OCCN(C)C
    3	-4	-3	-1	.	i	1	-8
> COc1ccc(/C=C/C(=O)N2CC(C)OC(C)C2)cc1OC (centres undefined)
    1	5	1	-83	-3	i	12	-17
> O=C(NCc1cccc(Cl)c1)c1ccc2c(c1)OCCO2
    -1	3	-1	-5	2	i	7	7
> CCOc1ccc(NC(=O)C2CCCN(C)C2)cc1 (centres undefined)
    -1	0	0	3	-17	i	-12	-6

# Further structures.
# Below each SMILES – PABP polyA inh	MT1-MMP act inh	MT1-MMP act inh RFP	Env fusion inh	Yeast UUG start	Rce1 inhib	eIF4H FP inh	CSC inhib
> COc1ccc(C(C)=NOC(=O)c2c(-c3ccccc3Cl)noc2C)cc1CN1CCOCC1
    .	0	-5	6	-10	.	.	.
> Cc1cccc(C)c1NC(=O)CN(C)C(=O)c1ccccc1Sc1ccccc1C#N
    .	-3	3	0	-10	.	.	.
> CCN(Cc1ccccc1)C(=O)CCNS(=O)(=O)c1ccc2c(c1)CC(C)N2C(C)=O (centres undefined)
    3	3	-2	-6	5	i	-11	-12
> CC(C)(C)NC(=O)c1ccc2c(c1)C1C3CCC(C3)C1C(c1ccccc1)N2 (centres undefined)
    7	-25	-17	4	-4	i	-6	.
> O=C(Cn1nnnc1CN1CCOCC1)N1CCC(c2cccc(Cl)c2)C1 (centres undefined)
    -1	-1	1	.	-12	i	-6	-8
> C[C@@H]1CN([C@H](C)CO)C(=O)CCCn2nncc2CO[C@@H]1CN(C)C(=O)Nc1ccc(N2CCN(C)CC2)cc1
    .	3	4	30	10&-10	.	.	.
> CC(=O)Nc1ccc(S(=O)(=O)N2CCN(S(=O)(=O)c3ccc(F)c(F)c3F)CC2)cc1
    26	-3	0	-85	-14	i	-16	-4
> Cc1ccc(N(C)C(=O)c2cc(S(=O)(=O)N3CCCCC3)c[nH]2)cc1
    -3	-6	-3	?	-12	i	-4	-3
> O=S(=O)(Cc1ccccc1Cl)NCCc1ccc(F)cc1
    -7	1	-1	2	-3	i	-12	4
> Cc1ccc(S(=O)(=O)N2CCN(C(=O)Cc3ccc(S(=O)(=O)N4CCOCC4)s3)CC2)cc1
    31	-1	-1	38	-2	i	0	-7
> O=C(c1ccccc1)N1CCN(S(=O)(=O)c2ccc(Cl)c(C(F)(F)F)c2)CC1
    .	-4	-5	4	-4	.	.	.
> CC1(C(=O)Nc2ccccc2)Cc2c(-c3cccc(C(F)(F)F)c3)ccnc2O1 (centres undefined)
    .	1	-2	17	-17	.	.	.
> O=C(CCn1nnc(-c2cccs2)n1)N1CCc2ccccc2C1
    -6	-4	7	.	-5	i	0	.
> CCOC(=O)N1CCN(C(=O)COC(=O)C2CCN(S(=O)(=O)c3c(Cl)cccc3Cl)CC2)CC1
    .	4	3	-4	12	i	.	-11
> COc1ccc(C(c2sc3nc(C)nn3c2O)N2CCc3ccccc3C2)cc1 (centres undefined)
    8	0	2	-6	-22	i	-3	-4
> C=CCn1c(C)cc(C)c(C#N)c1=O
    6	0	4	-53	-19	i	-3	-13
> CCOc1cc(C(C(=O)NCC2CCCO2)N(C(=O)Cn2nnc3ccccc32)c2ccccc2C)ccc1O (centres undefined)
    3	-2	-1	-58	-4	i	-3	-17
> O=C(NN(C(=O)C1CC1)c1nc2ccccc2s1)C1CC1
    4	0	-1	27	.	i	12	-15
> CCCc1nc2ccccc2c(=O)n1NC(=O)c1c(O)c2cccc3c2n(c1=O)CCC3
    7	-9	-15	.	.	i	11	-11
> CCc1nnc(N2C(=N)SCC2=O)s1
    0	4	-2	12	.	i	-5	-4
> COc1ccc(N2CCN(C(=O)C(=O)c3c(C)n(C)c4ccccc34)CC2)cc1
    -7	4	1	7	6	i	-3	.
> O=C(CN1C(=O)S/C(=C/c2cccnc2)C1=O)N1CCOCC1
    -9	3	10	.	.	i	-5	0
> COc1ncccc1-c1nnn(-c2ccc(F)cc2)n1
    2	0	0	-325	-23	i	-2	4
> CN(C)C(=O)c1ccc(N/C=C(\C=O)c2nc3ccccc3o2)cc1
    8	-5	1	2	.	i	0	-10
> COc1ccc(/C=C2\SC(=S)N(N3CCOCC3)C2=O)c(OC)c1
    -2	6	1	-4	-6	i	1	-11
> Cc1nc2cc(N3CCCCC3)c(NC(=O)c3ccncc3)cc2c(=O)n1Cc1ccccc1
    -7	-2	0	-78	-15	.	-5	.
> Cn1c(N2CCN(C(=O)Nc3ccc(F)cc3)CC2)nc2ccccc21
    26	4	2	-78	-17	i	8	.
> CCOC(=O)COc1cc(-n2c(=S)[nH]c3ccccc3c2=O)c(Cl)cc1Cl
    -8	-5	-8	7	.	i	3	-6
> N#Cc1c(-c2ccco2)ccn(Cc2ccc(F)cc2)c1=O
    -2	-3	1	16	-21	i	-4	24
> Nc1ccc2oc3ccccc3c2c1
    -7	-1	-1	-13	.	i	1	-9

# Next section.
# Below each SMILES – PABP polyA inh	MT1-MMP act inh	MT1-MMP act inh RFP	Env fusion inh	Yeast UUG start	Rce1 inhib	eIF4H FP inh	CSC inhib
> CC(C)(C)c1ccc(C(=O)Nc2cccc(C(=O)N3CCOCC3)c2)cc1
    -10	6	-13	-76	-11	i	-7	-8
> Cc1ccccc1C(=O)NNC1CC(=O)N(c2ccc3c(c2)OCCO3)C1=O (centres undefined)
    4	4	3	4	.	i	-8	-9
> COc1ccc(OC)c(S(=O)(=O)N2CCC(C(=O)N3CCc4ccccc4C3)CC2)c1
    -15	-2	-6	.	.	i	-2	-1
> Nc1c(-c2ccccn2)cnn1-c1nc(-c2ccc(F)cc2)cs1
    -8	-5	-8	-3	.	i	-4	5
> COc1ccccc1N1CCN(c2ccc3cc(S(=O)(=O)N4CCCCC4)ccc3n2)CC1
    -1	-2	-17	12	-16	i	4	.
> CCOC(=O)C1=C(COC(=O)CNC(=O)c2ccc(C(C)(C)C)cc2)NC(=O)NC1C (centres undefined)
    .	-2	7	15	.	i	.	-4
> O=C(O)CCCn1cc(NC(=O)c2ccc(Br)o2)cn1
    37	-1	3	-7	.	.	-2	4
> Nc1cc(=O)nc(SCC(=O)Nc2ccccc2)n1-c1ccccc1
    -11	-2	4	10	.	i	-8	1
> O=C(CN1CCN(c2cccc(C(F)(F)F)c2)CC1)NCc1ccccc1
    -2	-1	-3	18	-12	i	9	-18
> CCc1ccc(N(C(C)=O)c2nc(CCl)cs2)cc1
    2	2	6	-6	.	.	1	3
> CCC(CO)Oc1cc(NC(=O)c2ccc([N+](=O)[O-])cc2)c2ncn(C(C)C)c2c1 (centres undefined)
    .	-1	3	-10	-5&-6	.	.	.
> CN1CCN(S(=O)(=O)c2ccc(Cl)c3ccccc23)CC1
    -5	1	1	4	-27	i	-8	-9
> COc1ccc(CCNc2cc(N3CCN(C(=O)c4ccccc4F)CC3)ccc2[N+](=O)[O-])cc1OC
    5	-1	-24	.	-12	i	8	23
> CCOc1ccccc1C1N(c2ccc(F)cc2)C(=O)C2CCCN21 (centres undefined)
    -5	-1	-1	8	21	i	-6	-2
> CC(NS(=O)(=O)c1ccccc1)C1CC2CCC1C2 (centres undefined)
    .	-1	-1	19	-9	i	.	-15
> CCOC(=O)CCc1c(C)c(C#N)c2[nH]c3ccccc3n2c1=O
    12	4	-7	-91	-5	i	-1	7
> COc1ccc(C2=NS(=O)(=O)N(C)C(C(=O)Nc3cc(OC)c(OC)c(OC)c3)=C2)cc1
    .	3	-9	2	12	i	.	-8
> COC(=O)c1c(NC(=O)CN2CCC3(O)CCCCC3C2c2ccccc2OC)sc(C)c1C (centres undefined)
    2	1	-1	27	-11	i	10	-16

# Record cards, as listed above. Screens in order: PABP polyA inh	MT1-MMP act inh	MT1-MMP act inh RFP	Env fusion inh	Yeast UUG start	Rce1 inhib	eIF4H FP inh	CSC inhib
# Shown for O=C(O)c1ccccc1/C=N/N1CCN(C2c3ccccc3-c3ccccc32)CC1 = -13	-2	2	7	-9	i	4	-1
# Shown for C=CCn1c(SCc2c(C)noc2C)nc2cc(C(=O)O)ccc2c1=O = .	7	-7	-62	-6	i	.	51
